# High-throughput results (PubChem BioAssay)
# VDR inhibitor = blocks the human vitamin D receptor; VDR-SRC2-3 peptide fluorescence polarization, 2 h; actives 0.93% (n = 400,000); P11473; Potency, µM, for the others: max response, negative = inhibition, most hits filed as inhibitors; active means well fitted inhibition curve with a large enough effect; inconclusive means small, poorly fitted or top-dose-only effect, or another doubt; inactive means no such curve, though single readings can be large or run the other way; further: series mostly up to about 120 µM
# Target sequence (P11473 whole entry, looked up): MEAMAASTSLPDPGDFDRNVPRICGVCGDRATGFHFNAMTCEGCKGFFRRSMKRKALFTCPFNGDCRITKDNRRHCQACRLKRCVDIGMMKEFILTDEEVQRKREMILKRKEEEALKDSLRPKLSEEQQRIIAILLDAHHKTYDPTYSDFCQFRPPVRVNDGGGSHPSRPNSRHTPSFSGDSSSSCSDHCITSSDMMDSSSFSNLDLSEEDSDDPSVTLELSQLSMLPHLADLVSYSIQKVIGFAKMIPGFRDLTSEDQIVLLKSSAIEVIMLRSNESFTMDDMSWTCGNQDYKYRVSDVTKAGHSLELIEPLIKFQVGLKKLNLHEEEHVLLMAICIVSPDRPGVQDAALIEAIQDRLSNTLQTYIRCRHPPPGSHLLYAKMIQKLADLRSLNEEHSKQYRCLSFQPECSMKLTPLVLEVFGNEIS
#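 Measured by FP: displacement of SRC2-3 coactivator peptide from VDR by library compounds, following a two-hour ambient incubation.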
# The depositor's hits bear a star; ? = inconclusive; & = joins results of further samples. On the % scale 0 is the no-effect control and ±100 the full control effect; potency means the concentration at half of the fitted maximal effect.
Compound,VDR inhibitor
COc1ccc(C2=[N+](C)CCn3cccc32)c(OC)c1,-11.5%
Cc1nn2c(NCCCn3ccnc3)cc(C(C)C)nc2c1-c1ccccc1,6.1%
Cc1ccc(C(=O)Nc2cccc(C(=O)OCc3cc(=O)n4c5c(sc4n3)CCCC5)c2)cc1,5.6%
CCc1nc(NCCC(C)C)c2nnn(Cc3ccccc3)c2n1,-15.8%
CCOC(=O)Cn1nc(C)n(-c2cccc(Cl)c2)c1=O,-4.6%
O=C(NC1CCN(C(=O)NCc2ccccc2)CC1)c1ccc(F)cc1,1.0%
Nc1ncnc2c1ncn2[C@@H]1O[C@H](CNC(=O)[C@@H](N)COCc2ccccc2)[C@@H](O)[C@H]1O,-8.5%
Cc1c(C)c(C)c(S(=O)(=O)NCCc2ccncc2)c(C)c1C,4.8%
COc1ccc(/C=C(\NC(=O)c2ccc([N+](=O)[O-])cc2)C(=O)NCCCn2ccnc2)cc1,-21.8%
CCn1c(COc2ccc(C)cc2)nnc1SCC(=O)NCc1ccco1,?
COc1ccccc1-n1c(N)c(C(N)=O)sc1=S,-5.4%
CNC(=O)C1CCC(Cn2c(=O)c3sccc3n(CC(=O)Nc3cc(F)ccc3F)c2=O)CC1 (centres undefined),3.2%
Cc1nn(-c2ccccc2)c2sc(C(=O)NNC(=O)COc3ccccc3)cc12,-19.4%
Cn1cc(CN2CCC(C(O)c3cccs3)CC2)c(-c2cccc(Cl)c2)n1 (centres undefined),-12.6%
CCc1ccc(OC(=O)Cc2ccc(OC)c(S(=O)(=O)N3CCOCC3)c2)cc1,-17.2%
COc1ccc(C2Oc3ccccc3N2C(C)=O)cc1 (centres undefined),-5.7%
O=C(CNS(=O)(=O)c1ccc2ccccc2c1)Nc1ccc(F)c(F)c1F,?
C#C[C@]1(O)CC[C@@H]2[C@H]3CCc4cc(OC)ccc4[C@@H]3CC[C@@]21C,-6.2%
COc1cccc(CC(=O)N2CCC(n3nccc3NC(=O)C3CC3)CC2)c1,-11.8%
COc1cccc(C(=O)NC2CCCc3c2cnn3-c2ccc(C)c(C)c2)c1OC (centres undefined),2.3%
COc1ccc(NC(=O)N2CCC(c3ccccc3)C2)c(OC)c1 (centres undefined),-24.2%
O=C(Nc1cccc(NC(=O)c2nccc3ccccc23)c1)c1ccco1,7.2%
O=C(COc1ccccc1F)Nc1cc(S(=O)(=O)N2CCOCC2)ccc1N1CCOCC1,-3.4%
CN(C)c1ccc(NC(=S)N(CCc2ccccc2)C2CC(=O)N(c3c(Cl)cccc3Cl)C2=O)cc1 (centres undefined),-8.6%
O=C(Nc1ccc(N2CCOCC2)cc1)c1cccc(-n2cnnc2)c1,-16.3%
O=c1cc(Cl)[nH]c(=O)n1Cc1ccccc1,-6.9%
CCOC(=O)C1=C(COC(=O)c2ccc(OC(C)C)cc2)NC(=O)NC1C (centres undefined),-6.8%
CC(/C=N/n1c(-c2cccnc2)n[nH]c1=S)=C\c1ccccc1,-21.8%
Cc1ccc(S(=O)(=O)N2CCN(C)CC2c2ccccc2)cc1 (centres undefined),-6.1%
CN(C)c1ccc(N=Nc2ccccc2Br)cc1,10.4%
CN(/N=C/c1ccc(Cl)cc1Cl)c1ncc(Cl)cc1C(F)(F)F,-5.8%
CCN(CC(=O)Nc1c(F)cccc1F)C(=O)c1nc2nc(C)cc(C)n2n1,-2.0%
Cc1cc(Cl)ccc1OCC(=O)Nc1ccccc1NS(=O)(=O)c1cccs1,?
O=C(NN=C1CCCCCCCCCCC1)c1ccncc1,-9.6%
COc1cccc(C(=O)N(Cc2cccs2)C2CCS(=O)(=O)C2)c1 (centres undefined),4.9%
Cn1nc(C(F)(F)F)c(-c2ccccc2)c1NC(=O)CCC(=O)O,11.0%
S=c1c2c(nc3nc[nH]n13)CCC2,-24.1%
Fc1ccc(CNC2CCN(Cc3ccccc3)CC2)cc1,15.3%
CSc1nsc(SC)c1NC(=O)OC1CCCCC1,-5.5%
O=C(Nc1ccc2c(c1)OCCO2)c1cccnc1Oc1ccccc1,-3.8%

# Arranged by heavy-atom count (ascending): 3 of the compounds above.
Compound,VDR inhibitor
O=c1cc(Cl)[nH]c(=O)n1Cc1ccccc1,-6.9%
CCOC(=O)Cn1nc(C)n(-c2cccc(Cl)c2)c1=O,-4.6%
COc1ccc(/C=C(\NC(=O)c2ccc([N+](=O)[O-])cc2)C(=O)NCCCn2ccnc2)cc1,-21.8%

# (next part)
Compound,VDR inhibitor
CC(NS(=O)(=O)c1ccc(Cl)cc1)C(=O)NCCC1=CCCCC1 (centres undefined),-12.2%
CCCS(=O)(=O)C(=C1Nc2ccccc2N1)S(=O)(=O)CCC,4.2%
CCCCCCC1/C(=N/O)CCC1C(=O)OC (centres undefined),-13.7%
COc1ccc(C(C#N)c2nc3ccccc3nc2Cl)cc1 (centres undefined),8.2%
COc1ccccc1C(=O)Nc1nc2ccccc2s1,-3.0%
O=C(c1ccccc1Oc1ccc(C(F)(F)F)cc1[N+](=O)[O-])N1CCOCC1,-4.6%
N#Cc1cc2c(nc1SCC(O)CS(=O)(=O)Cc1ccccc1)CCCC2 (centres undefined),-9.1%
CCOC(=O)CSc1nc2c([nH]c3ccccc32)c(=O)n1-c1ccc(OCC)cc1,8.6%
CCCN1CCN(CCCNC(=O)C(CC)n2nc(C)n3c(cc4occc43)c2=O)CC1 (centres undefined),8.1%&1.0%
CC(=O)c1cn(CC(=O)Nc2ccccc2)c2ccccc12,9.8%
CCOc1ccc(-c2cc(C)n3nc(C(=O)Nc4cc(Cl)ccc4O)cc3n2)cc1,4.5%
Cc1cc(-c2ccco2)n2c(nc3ccccc32)c1C#N,-20.3%
N#CCSc1nc(Nc2ccc3c(c2)OCO3)c2ccccc2n1,2.4%
C=CCC[C@@H](Cc1ccc(F)cc1)C(=O)OC[C@H](Cc1c[nH]c2ccccc12)NC(=O)[C@H](CC=C)CC(=O)NCCO,-9.2%
N#Cc1cccc(-c2cncnc2-n2ccnc2)c1,?
CC(=O)NC(O)C(=O)c1ccco1 (centres undefined),14.8%
O=C(N/N=C/c1c[nH]c2ccccc12)c1ccc(O)c(O)c1,-25.1%
Cc1ccc(-c2c(C)n([O-])c3c([n+]2=O)CCC3)cc1,-29.6%
O=C(CS(=O)(=O)c1ccc(F)cc1)NCc1ccccc1,-6.1%
CSc1ccc(NC(=O)Cn2nnnc2-c2ccccc2F)cc1,-10.9%
CC(=O)Nc1ccc(NC(=O)c2ccc([N+](=O)[O-])cc2Cl)cc1,-15.6%
CCn1c(SCC(=O)c2cc(OC)ccc2OC)nnc1C(C)C,-10.7%
CCN(C(=O)Cn1c(=O)oc2cc(S(=O)(=O)N3CCCC3)ccc21)c1ccc(OC)cc1,-13.4%
CCOc1ccc(OCC)c(NC(=O)Nc2ccc3c(c2)N(C)C(=O)CS3)c1,-0.3%
O=C1NC(=O)C(CSc2ccccc2)(c2ccccc2)N1 (centres undefined),-3.9%
CCN(CC)CCCNC(=O)c1cc(Nc2ccc(OC)cc2)nc2ccccc12,1.0%
CCC(C)NC(=O)c1ccc2c(c1)nc1n2CCCCC1 (centres undefined),16.1%
C=C1[C@@H](O)[C@@H]2O[C@]3(CC[C@H](/C=C/[C@@H](C)[C@@H]4CC(C)=CC5(O[C@H](C[C@@](C)(O)C(=O)OC)CC[C@H]5O)O4)O3)CC[C@H]2O[C@@H]1[C@@H](O)C[C@H](C)[C@H]1OC2(CCCCO2)CC[C@H]1C (some centres undefined),-4.1%
Cn1ncc([N+](=O)[O-])c1C(=O)NCc1ccccc1,-1.4%
O=C(COC(=O)c1cccc(S(=O)(=O)N2CCCC2)c1)Nc1ccccc1Cl,4.9%
COc1cccc(N(C(=O)c2nc3nccc(C)n3n2)c2nc3ccccc3s2)c1,-2.7%
CCCCn1c(=O)c(Cc2ccccc2)c(O)c2ccccc21,11.2%
O=C(CCc1nnc2ccc(N3CCC4(CC3)OCCO4)nn12)N1CCCCC1,-7.2%
CC(C)(C)c1ccc(/C=C/C(=O)NCCCN2CCOCC2)cc1,-14.6%
COc1ccc(C2=NN(c3ccccc3)C(c3cn(CCC(=O)O)nc3-c3ccccc3)C2)cc1 (centres undefined),4.4%
Cc1nn(C)c(C)c1CNC(=O)c1nn2c(c1Cl)NC(c1cccs1)CC2C(F)(F)F (centres undefined),-12.3%
C(=N\Nc1nc(Nc2ccccc2)nc(Nc2ccccc2)n1)/c1cccnc1,0.1%
CC(NCc1cccs1)C(=O)NC1CCCCC1 (centres undefined),24.5%
CCOC(=O)C1CCN(C(=O)COC(=O)c2cccc(F)c2)CC1,2.7%
Nc1nnc(-c2cccnc2)s1,-6.6%
Cc1ccc(CNC(=O)C2CCCN(S(=O)(=O)N3CCC(C)CC3)C2)cc1 (centres undefined),16.8%
CC1(C)NC(=O)N(CC(=O)OCC(=O)Nc2c(Br)cc([N+](=O)[O-])cc2Br)C1=O,-8.6%
Cc1ccc(C(=O)Nc2ccc(S(=O)(=O)O)c3cc(S(=O)(=O)O)cc(S(=O)(=O)O)c23)cc1NC(=O)c1cccc(NC(=O)Nc2cccc(C(=O)Nc3cc(C(=O)Nc4ccc(S(=O)(=O)O)c5cc(S(=O)(=O)O)cc(S(=O)(=O)O)c45)ccc3C)c2)c1,22.4µM*
CCCCC(=O)NC1(C(F)(F)F)C(=O)N(Cc2ccco2)C(C)=C1C(=O)OC (centres undefined),21.2%
Cc1ccc(N(C(=O)c2ccc(S(=O)(=O)N3CCOCC3)cc2)C2C=CS(=O)(=O)C2)cc1C (centres undefined),4.1%
CC(C)CC(=O)N/N=C/c1c(N)n(C)c(=O)n(C)c1=O,-2.7%
COc1ccc(Cc2nc3ccccc3n2C)cc1,-11.9%
CC[C@H](C)[C@H](NC(=O)[C@H](CC(=O)O)NC(=O)[C@H](CC(C)C)NC(=O)[C@H](Cc1cnc[nH]1)NC(=O)[C@H](C)NC(=O)[C@H](Cc1ccccc1)NC(=O)[C@H](Cc1ccc(O)cc1)NC(=O)[C@@H](NC(=O)[C@H](C)NC(=O)[C@H](CCC(=O)O)NC(=O)[C@H](CCCCN)NC(=O)[C@H](CC(=O)O)NC(=O)[C@H](CCSC)NC(=O)[C@H](CC(C)C)NC(C)=O)C(C)C)C(=O)N[C@H](C(=O)N[C@@H](Cc1c[nH]c2ccccc12)C(=O)O)[C@@H](C)CC,-4.7%

# Reprinted at random: 2 records from the list, in no set order.
Compound,VDR inhibitor
CC1(C)NC(=O)N(CC(=O)OCC(=O)Nc2c(Br)cc([N+](=O)[O-])cc2Br)C1=O,-8.6%
COc1ccc(Cc2nc3ccccc3n2C)cc1,-11.9%

# (listing goes on)
Compound,VDR inhibitor
O=[N+]([O-])c1cccc(CN2CCN(c3ncccn3)CC2)c1,-8.1%
CC(C)COc1ccc(C(=O)Nc2cc(-c3ccccc3)no2)cc1,10.2%
CCOc1ccccc1OCCCC(=O)ON=C(N)c1ccccc1,-13.7%
COc1cccc(CN2CCNC(=O)C2CC(=O)NC2CCCC2)c1OC (centres undefined),-20.7%
COc1ccc(Oc2cnn(-c3ccccc3)c(=O)c2Br)cc1,12.4%
CC(=O)N1CCc2c(sc(NC(=O)CSc3ccc(C)cc3)c2-c2nc3ccccc3s2)C1,10.1%
CCOC(=O)C1(Cc2cccc(Cl)c2)CCCN(C(=O)CN2C(=O)CSC2=O)C1 (centres undefined),-20.6%
O=C(Nc1cccc(F)c1)C1CCCN1C(=O)OCc1ccccc1 (centres undefined),9.9%
COc1ccc(-c2c(C)n([O-])c(C)c(C)[n+]2=O)cc1,-4.2%
O=C(COC(=O)c1ccc(Cl)nc1)NCCNC(=O)COC(=O)c1ccc(Cl)nc1,-3.0%
COc1cccc(N2CCN(C(=O)CCc3nnc4ccc(N5CCCC5)nn34)CC2)c1,-16.3%
COc1ccc(NC(=O)COC(=O)c2cnccn2)cc1Cl,4.1%
CC(C)(O)C#Cc1ccc(C(=O)Nc2ccc3c(c2)OCO3)s1,-8.3%
NC(=O)NNc1ccccc1,-6.1%&8.3%
CCOC(=O)N1CCC(n2c(SCC(=O)NCCc3ccc(S(N)(=O)=O)cc3)nc3ccccc3c2=O)CC1,-7.3%
CC(C)(C)NC(=O)C1CCC(CNc2c(N3CCCCC3)c(=O)c2=O)CC1 (centres undefined),7.5%

# Gathered by group, the compounds so far with a tert-butyl group (2)
Compound,VDR inhibitor
CC(C)(C)c1ccc(/C=C/C(=O)NCCCN2CCOCC2)cc1,-14.6%
CC(C)(C)NC(=O)C1CCC(CNc2c(N3CCCCC3)c(=O)c2=O)CC1 (centres undefined),7.5%

# Next structures
Compound,VDR inhibitor
O=C(NCCc1ccccc1)C1CCN(S(=O)(=O)c2ccc(Br)s2)CC1,-22.0%
c1ccc(-c2csc3ncnc(NCC4COc5ccccc5O4)c23)cc1 (centres undefined),-10.6%
CC1=NNC(=O)/C1=C\c1cn(-c2ccccc2)nc1-c1ccc(F)cc1,44.7µM*
O=C(CSc1nnnn1-c1ccc2c(c1)OCO2)NCc1cccs1,-3.4%
Cc1cc(C)cc(NC(=O)c2ccc3nc[nH]c3c2)c1,5.2%
COc1cccc(NC(=O)CSc2nc(=O)n(Cc3ccncc3)c3c2CCCC3)c1,-18.6%
Cc1ccc(OCCNCc2ccccc2)c(C)c1,-5.6%
CC(C)(C)OC(=O)N[C@H]1C=C[C@H](OC(=O)CC(=O)OCC(F)(F)F)C1,-13.4%
CC(C)NC(=O)Cn1nc(N2CCN(c3ccccc3)CC2)ccc1=O,13.6%
N#Cc1ccccc1S(=O)(=O)N1CCN(CC(O)CN2CCOCC2)CC1 (centres undefined),-1.9%
COc1ccc(OC)c(C(=O)c2coc3ccc(OC(C)=O)cc23)c1,-15.6%
CC(=O)Nc1ccc(S(=O)(=O)N2CCN(Cc3ccccc3[N+](=O)[O-])CC2)cc1,-2.2%

# Not all compounds are listed; count on the stated rates, not on these rows.
